Sa RN4220 lethal: S. aureus RN4220 growth inhibition; OD600, 16 h; inhibition, % (test concentration not listed); 330,000 tested, 0.33% active; AID 1259311;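 active = z-score of -3 or lower and OD600 up to 0.18 on both plates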;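 note: plate controls were untreated cells for no effect and reference antibiotic for full effect; stock transfer was 100 nL into about 80 µL; one replicate is shown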
Sa ugtP lethal: compounds lethal to S. aureus RN4220 ugtP deletion mutant. OD600 growth, 16 h; some inactives read as strong as hits. growth inhibition, % (test concentration not listed). 330,000 tested, 0.54% active. AID 1259309;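 active = z-score under -3 and OD600 up to 0.15 on both plates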;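 note: plate controls were untreated wells for no effect and antibiotic for full effect; wells of about 80 µL received 100 nL stock; the first replicate is given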
PrP UTR inh: inhibition of PrP 5' UTR reporter expression; inhibition, % (concentration not given with the values); cell-based PrP 5' UTR mRNA reporter, plate reader; 340,000 tested, 0.35% active;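 active = every replicate at 50% or more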;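 note: 0 = median of the neutral control wells; tested in H4 reporter cells; numbers are from one replicate; inactives centre near -14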
Mtb hypoxia inh: inhibitors of hypoxia-regulated fluorescent reporter in Mycobacterium tuberculosis | fluorescence inhibition, % (test concentration not listed) | M. tuberculosis hypoxia-regulated fluorescent reporter, fluorescence | 300,000 tested, 0.1% active;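 active = 35 to 45% if threefold the growth effect, above 45% if 1.5-fold the growth effect; inactive = the rest, general growth blockers included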;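 note: wells of about 50 µL received 100 nL stock; 0% = vehicle wells and 100% = reference inhibitor wells; whole bacteria with a GFP reporter of the hypoxia response; strong numbers were not always called active; many hits fall short of the cut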
BJeLR viability: kills HRASV12-expressing BJeLR cells; inhibition, % (no concentration beside the values); BJeLR (HRASV12) viability, CellTiter-Glo ATP luminescence, 48 h; reference of the scale not given here; 300,000 tested, 0.17% active;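 active = replicate mean above 50%; inconclusive = above 50% but judged a plate artefact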;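 note: 50 nL library stock added to about 25 µL; numbers are from one replicate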
Autofluor counter: counter-screen for toxin protease inhibitors: compound fluorescence. compound autofluorescence counterscreen, microsphere flow cytometry; active compounds read high. 360,000 tested, 3.1% active. fluorescence intensity (no concentration beside the values);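 active = at least 3 SD above the mean of all compounds, about 16000 in these data; inconclusive = too few beads counted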;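 note: 100 nL of 1 mM stock went into each well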
Mtb hypoxia inh growth: recorded beside Mtb hypoxia inh, whose call it bears; growth inhibition, %; measured here: M. tuberculosis growth (absorbance);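 0% = vehicle and 100% = reference antibiotic; read after six days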
Starred values were filed as active, the others as inactive; ? = inconclusive; . = not tested or not shown. The order is random; 4% or so of the library scored in one or more.

| SMILES | Sa RN4220 lethal | Sa ugtP lethal | PrP UTR inh | Mtb hypoxia inh | Mtb hypoxia inh growth | BJeLR viability | Autofluor counter |
| --- | --- | --- | --- | --- | --- | --- | --- |
| CCc1c(O)nc2sc3ccccc3n2c1=O | 2.6 | 7 | -11 | . | . | 0 | 5011 |
| CN(C)CCn1ccc(O)c(Cc2ccc(Cl)cc2)c1=O | 2.5 | 6 | -9 | 14 | -5 | -16 | 3149 |
| CCn1c(=O)[nH]c2cc(C(=O)Nc3cc(C)cc(C)c3)ccc2c1=O | 0.1 | 0 | 1 | 0 | 4 | -5 | 3436 |
| O=C1c2ccccc2C(=O)N1CC(O)Cn1nnc2ccccc21 (stereo not drawn) | 4.5 | 4 | -27 | -6 | 8 | 3 | 9498 |
| CCCN1CCCC(C(=O)c2cc(C)c(OC)c(C)c2)C1 (stereo not drawn) | 2.8 | 2 | 13 | 5 | -4 | -5 | . |
| CC(=O)N(c1ccc(Br)cc1)C1C=CS(=O)(=O)C1 (stereo not drawn) | -1.9 | 2 | -5 | . | . | 4 | 5523 |
| CCOC(=O)C1CCN(C(=O)Nc2c(-c3ccccc3)noc2C)CC1 | 4.2 | -1 | -22 | 3 | 17 | -1 | 5878 |
| O=C1c2ccccc2C(Nc2ccc(S(=O)(=O)N3CCCCC3)cc2)N1Cc1ccco1 (stereo not drawn) | -13 | -2 | -5 | 0 | 10 | -3 | 7670 |
| COc1ccc(C(=O)O/N=C(/C)c2cccs2)cc1 | . | . | -23 | . | . | -3 | 3033 |
| O=c1cc(O)n(-c2ccccc2F)c(=S)[nH]1 | 7.0 | 6 | -16 | 5 | 12 | -3 | 7903 |
| O=C(NCc1ccc(N2CCCC2=O)cc1)c1cn(Cc2ccccc2)nn1 | 5.9 | -3 | -4 | 9 | 11 | -5 | 3331 |
| Cc1cc(C(=O)OCC(=O)N(CC(C)C)c2c(N)n(Cc3ccccc3)c(=O)[nH]c2=O)c2ccccc2n1 | -0.7 | 6 | -21 | 2 | -1 | 6 | 5744 |
| COc1c(-c2ccccc2)oc2c(ccc3occc32)c1=O | 15 | 14 | -10 | 7 | -4 | . | 6138 |
| O=C(c1cc(N2C(=O)C3C4CCC(C4)C3C2=O)ccc1Cl)N1CCCCCC1 (stereo not drawn) | . | . | -10 | . | . | 4 | 4461 |
| CCOc1ccccc1NC(=S)Nn1cnnc1 | 7.6 | 21 | -10 | 0 | -10 | -7 | ? |
| Cc1ccnc(NS(=O)(=O)c2ccc(NC(=O)c3cc(-c4ccccc4)nc4ccccc34)cc2)n1 | -1.7 | 2 | -6 | 1 | 1 | 1 | 3178 |
| C=CCN1C(=O)c2ccc(C(=O)N3CCN(S(=O)(=O)c4cc(C)ccc4C)CC3)cc2C1=O | 6.6 | 16 | -17 | 5 | -2 | -4 | ? |
| CC(CC(C)C)=NNc1ccc([N+](=O)[O-])cc1[N+](=O)[O-] | 9.3 | 9 | . | 13 | 11 | . | . |
| NS(=O)(=O)c1cccc(NC(=O)CN2CCC(Cc3ccccc3)CC2)c1 | 2.1 | 6 | -14 | 11 | 7 | 3 | 4786 |
| Cc1cc(C)c2nc(SCC(=O)NCC3CCCO3)c(C#N)cc2c1 (stereo not drawn) | 5.5 | 0 | -12 | 8 | 1 | 3 | 3515 |
| CCOc1ccc(NS(=O)(=O)c2ccc(C(=O)N(C)CC(=O)Nc3ccc(OC)cc3)cc2)cc1 | 3.6 | 5 | 5 | 4 | -3 | 8 | 4699 |
| Cc1cc(C=O)c(C)n1-c1ccc(NC2CCCCC2)c([N+](=O)[O-])c1 | -1.6 | -9 | 8 | . | . | 37 | 4102 |
| COc1ccc2c(=O)c(C(=O)NCCc3ccccc3)c[nH]c2c1 | 5.8 | 0 | -37 | 6 | 10 | -12 | 4097 |
| O=[N+]([O-])c1cc(C(F)(F)F)ccc1N1CCN(CCO)CC1 | -1.5 | -10 | -12 | 9 | 10 | -14 | 4138 |
| COc1ccc2cc(/C=N/NC(=O)CSCc3ccc([N+](=O)[O-])cc3)c(Cl)nc2c1 | . | . | -3 | . | . | -3 | 9088 |
| CC(=NNC(=O)CNC(=O)c1ccccc1F)c1ccc2c(c1)CCCC2 | 1.5 | -11 | . | 0 | 5 | . | . |
| O=C(CNC(=O)c1n[nH]c2ccccc12)Nc1cc(Cl)ccc1Cl | 1.2 | 0 | 12 | -3 | 1 | . | 2842 |
| CCN(CC)C(=O)[C@H]1CC(CC(=O)NCCCN(C)C)C(=O)N2CCc3c([nH]c4ccccc34)[C@]12C (stereo partly drawn) | 1.7 | 1 | -16 | 4 | 5 | . | 3856 |
| CCCCC(C(=O)O)C(C)CC(=O)Nc1cccc(C(=O)O)c1 (stereo not drawn) | -3.9 | -9 | -14 | -1 | -5 | -3 | 2949 |
| O=C(NNS(=O)(=O)c1ccccc1[N+](=O)[O-])c1cccc(Br)c1 | 25 | 11 | -16 | 14 | 7 | 1 | 3747 |
| COc1cc(NC(=O)COC(=O)C=C(C)C)c(C)cc1[N+](=O)[O-] | 8.1 | 3 | 28 | 1 | 5 | -1 | 4465 |
| COc1ccc(C(=O)Nc2nnc(CCS(=O)(=O)c3ccc(C)cc3)s2)cc1 | 2.5 | 0 | -14 | 2 | 2 | -2 | 3929 |
| CC(C)(C)n1cc(C(=O)c2ccccc2)cc1-c1ccccc1 | 4.3 | -9 | -25 | 16 | 8 | -3 | 3990 |
| Cc1cccn2c(=O)c3cc(C#N)c(=O)n(Cc4cccnc4)c3nc12 | 4.8 | 6 | -16 | 3 | 8 | . | . |
| NS(=O)(=O)c1ccc2c(c1)oc(=O)c1cc(S(N)(=O)=O)ccc12 | 5.3 | 10 | -25 | 2 | 3 | 2 | 2611 |
| CCCn1c(N)c(C(=O)CN(C)CC(=O)Nc2cc(C)ccc2C)c(=O)[nH]c1=O | 3.9 | 9 | -17 | -4 | -6 | . | ? |
| Cc1cc(C(=O)NC(C)C2CCCO2)c(C)o1 (stereo not drawn) | 2.0 | 15 | -16 | 5 | -4 | -5 | . |
| OCCN(CCO)CC(O)COc1ccc(C23CC4CC(CC(C4)C2)C3)cc1 (stereo not drawn) | -4.0 | 4 | -6 | 8 | 8 | -2 | 8884 |
| COc1ccccc1CN(C(=O)CCl)C(C(=O)NC1CCCCC1)c1ccncc1 (stereo not drawn) | 3.7 | -1 | -15 | 10 | 7 | . | 9529 |
| COc1ccc(CCNC(=O)C2CCN(S(=O)(=O)N3CCOCC3)CC2)cc1OC | 4.9 | 4 | -8 | 2 | 5 | -3 | 11415 |
| CC(=O)N1CCOCCOCCN(C(C)=O)CCOCC1 | 4.5 | 10 | -25 | 11 | 5 | 3 | 4582 |
| CCOC(=O)C1CCN(C(=O)CCc2c(C)nc3cc(-c4ccc(OC)cc4OC)nn3c2C)CC1 | 0.6 | 2 | -33 | -2 | 10 | -4 | 2275 |
| Cc1[nH]c2ccccc2c1C(=O)CSc1nncn1C | 4.0 | -5 | -21 | . | . | 0 | 3320 |
| Cc1cccc(CN2C(=O)N/C(=C/c3cc(C)n(-c4cc(C)ccn4)c3C)C2=O)c1 | -14 | -13 | -26 | 16 | 14 | 7 | 4411 |
| COc1ccc(C(=O)CSc2nnc(CNC(=O)c3ccccc3F)n2C)cc1OC | 0.7 | 7 | -13 | 2 | -1 | -7 | 3117 |
| CCCOc1ccc(C2C(C(=O)c3cc4ccccc4o3)=C(O)C(=O)N2c2cc(C)on2)cc1 (stereo not drawn) | . | . | -10 | . | . | -4 | 4502 |
| CCCC(=O)Nc1ccc2oc(=O)ccc2c1 | 1.4 | 6 | -8 | 3 | 2 | -5 | 4134 |
| Cc1nnc(NC(=O)CCn2c(=O)oc3ccccc32)s1 | 3.7 | 7 | -21 | 11 | 9 | 5 | 5489 |
| O=C(O)c1ccc(NS(=O)(=O)c2cc(Cl)sc2Cl)cc1 | -3.7 | 7 | 3 | 1 | 6 | 3 | 3584 |
| Cc1ccc(S(=O)(=O)Oc2ccc(/C=C(/NC(=O)c3ccccc3)C(=O)Nc3ccccc3)cc2)cc1 | . | . | -16 | . | . | 7 | 2256 |
| COc1ccc(C(=O)c2cnc[nH]2)cc1 | 1.9 | 4 | -20 | 4 | -6 | 7 | 3983 |
| O=C(CSc1nnc(CNc2ccc(Cl)cc2)o1)Nc1nc2ccccc2s1 | 4.4 | 1 | -18 | 3 | 2 | 1 | 25121* |
| O=C(Nc1ccccc1N1CCOCC1)c1ccc(Br)o1 | -1.2 | -3 | 14 | 5 | -8 | 3 | ? |
| O=C(Nc1nc(-c2ccccc2)cs1)c1ccc(N2CCOCC2)c([N+](=O)[O-])c1 | 16 | -11 | -27 | 6 | -1 | 14 | 10115 |
| O=C(O)c1ccc(/C=N/O)cc1 | . | . | -12 | . | . | -4 | 5007 |
| COc1ccc(/C=C2\N=C(SC)NC2=O)cc1 | . | . | -7 | . | . | -8 | 2510 |
| COc1nnc(-c2ccc(C)c(S(=O)(=O)NCCO)c2)c2ccccc12 | -3.8 | -2 | -21 | 17 | 13 | -4 | 3730 |
| Cc1cccc(NC(=O)NCCN2CCCCC2)c1 | 1.9 | 1 | -13 | 6 | 10 | 4 | 3498 |
| O=C(NN=C/C=C/c1cccc([N+](=O)[O-])c1)c1ccncc1 | -0.4 | 3 | . | . | . | . | . |
| O=C(c1ccc(N2CCOCC2)c([N+](=O)[O-])c1)N1CCCC(C(F)(F)F)C1 (stereo not drawn) | 4.0 | 2 | -12 | 7 | -2 | 3 | 6162 |

Part of the list above in order of number of heavy atoms, lowest first:
| SMILES | Sa RN4220 lethal | Sa ugtP lethal | PrP UTR inh | Mtb hypoxia inh | Mtb hypoxia inh growth | BJeLR viability | Autofluor counter |
| --- | --- | --- | --- | --- | --- | --- | --- |
| Cc1cc(C(=O)NC(C)C2CCCO2)c(C)o1 (stereo not drawn) | 2.0 | 15 | -16 | 5 | -4 | -5 | . |
| Cc1[nH]c2ccccc2c1C(=O)CSc1nncn1C | 4.0 | -5 | -21 | . | . | 0 | 3320 |
| Cc1nnc(NC(=O)CCn2c(=O)oc3ccccc32)s1 | 3.7 | 7 | -21 | 11 | 9 | 5 | 5489 |
| O=C(c1ccc(N2CCOCC2)c([N+](=O)[O-])c1)N1CCCC(C(F)(F)F)C1 (stereo not drawn) | 4.0 | 2 | -12 | 7 | -2 | 3 | 6162 |
| O=C(Nc1nc(-c2ccccc2)cs1)c1ccc(N2CCOCC2)c([N+](=O)[O-])c1 | 16 | -11 | -27 | 6 | -1 | 14 | 10115 |
| Cc1cccc(CN2C(=O)N/C(=C/c3cc(C)n(-c4cc(C)ccn4)c3C)C2=O)c1 | -14 | -13 | -26 | 16 | 14 | 7 | 4411 |
| CCOC(=O)C1CCN(C(=O)CCc2c(C)nc3cc(-c4ccc(OC)cc4OC)nn3c2C)CC1 | 0.6 | 2 | -33 | -2 | 10 | -4 | 2275 |

Next section
Values in the order: Sa RN4220 lethal | Sa ugtP lethal | PrP UTR inh | Mtb hypoxia inh | Mtb hypoxia inh growth | BJeLR viability | Autofluor counter
- CC(C)(C)c1ccc(OCCC(=O)OCC(=O)NC2CC2)cc1
→ 4.9 | 3 | 5 | 1 | 7 | . | 7975
- COc1ccc(C(=O)N[C@H](C(=O)NCCc2ccc3c(c2)OCCO3)C(C)C)cc1
→ 0.8 | 1 | -18 | 3 | -4 | . | 7894
- CC=CC=CC(=O)Nc1nccs1
→ 6.2 | 1 | . | 6 | 4 | . | .
- Cc1cc([N+](=O)[O-])ccc1NCc1ccccc1
→ 0.2 | 0 | -4 | -4 | -9 | 4 | 4347
- CC1CCN(C(=O)CSc2ccc(-c3cccc([N+](=O)[O-])c3)nn2)CC1
→ 4.5 | 1 | -7 | 9 | 15 | 6 | 4261
- CC(C)(C)C(=O)NC1CC2CCCC(C1)N2C(=O)Nc1ccccc1Cl (stereo not drawn)
→ 1.6 | 6 | -26 | 1 | -1 | -2 | 3379
- COc1ccccc1-c1cc(C(=O)NN=Cc2cnn(C)c2C)c2ccccc2n1
→ 2.5 | 1 | . | 4 | 7 | . | .
- O=C(O)/C=C/c1ccccc1[N+](=O)[O-]
→ 8.9 | 2 | -29 | -8 | 0 | 0 | 4399
